# Compound activity (PubChem BioAssay)
# VACV Venus inh: vaccinia inhibition (Venus reporter); Vaccinia virus Venus reporter expression, fluorescence; Potency, µM (highest dose often 36.5 µM), for inactives: at the top dose activity change, negative = inhibition, actives largely listed as inhibitors; 330,000 tested, 0.46% active; AID 720580; active means well fitted inhibition curve with a large enough effect; inconclusive means small, poorly fitted or top-dose-only effect; inactive means no such curve, though single readings can be large or run the other way; tested in A549 cells; also: nearly all actives have a fitted effect of over 30% in size; inactives centre near -10
# Vaccinia mCherry: vaccinia inhibition (mCherry reporter); Vaccinia virus mCherry reporter infection, fluorescence; about a quarter of the inactives have no number; Potency, µM (series often up to 36.5 µM), without a hit: at the top dose activity change, negative = inhibition, most hits filed as inhibitors; 310,000 tested, 0.63% active; active = well fitted inhibition curve with a large enough effect; inconclusive = small, poorly fitted or top-dose-only effect; inactive = no such curve, though single readings can be large or run the other way; tested in A549 cells; also: nearly all actives have a fitted effect of over 35% in size; inactives centre near -10
# * = called active by the depositor; i = inactive; ? = inconclusive; / = no result given; & = joins results of further samples; [ ] = another dose, or the depositor's remark. % is scaled to controls: 0 for no effect and ±100 for the full control effect; potency is read from the fitted curve at half-maximal effect.
Molecule,VACV Venus inh,Vaccinia mCherry
O=C(Cn1ncn2c(cc3sccc32)c1=O)NCCc1ccccc1,-9.4%,2.7%
COc1ccc(S(=O)(=O)Nc2ccccc2C(=O)OC2CCCN(C)C2)cc1OC (stereo not drawn),-20.6%,-26.8%
O=C(COc1coc(CN2CCN(c3ccc(F)cc3)CC2)cc1=O)Nc1ccccc1,-14.9%,-11.4%
CCOC(=O)c1c(NC(=O)CSc2nnc(-c3c[nH]c4ccccc34)n2C)sc2c1CCCC2,?,?
CCOC(=O)c1cc2c(C)n(-c3ccc(OCC)cc3)c(C)c2ccc1=O,-23.0%,?
COc1ccc(C2C(C(C)=O)=C(O)C(=O)N2c2ccc(Br)cn2)cc1 (stereo not drawn),1.8%,/
COc1ccc(OC)c(NS(=O)(=O)c2ccc(-n3cccn3)cc2)c1,?,-23.5%&-15.1%
O=C1OC(C(=O)Nc2ccccc2)Cc2ccccc21 (stereo not drawn),-16.4%,-13.7%
CCOCCCNC(=O)c1ccc2c(c1)NC(=O)C(CS(=O)(=O)Cc1ccc(F)cc1Cl)N2 (stereo not drawn),12.5%,-0.4%
COc1cccc(CSc2nc3cc(C(=O)NC4CCCC4)ccc3c(=O)n2Cc2ccccc2)c1,-8.2%,-11.1%
CCn1nc(C(=O)Nc2ccccc2C)c(Cl)c1Cl,-2.7%,i
O=C(NCc1ccccn1)C12CC3CC(CC(C3)C1)C2,-13.6%,-24.2%
S=c1[nH]ccn1Cc1ccccc1,0.6%,i
CC(C)NC(=O)Nc1nnc([C@H]2C[C@H](O)[C@@H](CO)O2)s1,3.2%,3.0%
CC1=NN(c2ccccc2)C(=O)C1N=Nc1cccc(O)c1 (stereo not drawn),?,?
COC(=O)c1c(C)nn(-c2ccc(F)cc2)c1-n1cccc1,-15.0%,-14.9%
COC(=O)[C@@H]1CCCN1Cc1ccc2c(c1)CN(Cc1coc3ccc(C)cc3c1=O)CCO2,-10.3%,-14.9%
COc1ccc(CCN(C)CCCC(C#N)(c2cc(OC)c(OC)c(OC)c2)C(C)C)cc1OC (stereo not drawn),-16.0%&-15.7%,-3.2%
COc1cccc(C(=O)COc2ccc(NC(=O)c3ccccc3)cc2)c1,-20.9%,i
C/C(Cn1nnc([N+](=O)[O-])n1)=N\NC(=O)c1cccc(Cl)c1,?,?
O=C(CSc1nnc(NC(=O)c2c(F)cccc2F)s1)NC1CC1,0.3%,i
N#C/C(=C\c1ccc(-c2nc3ccccc3s2)o1)C(N)=O,-2.8%,-15.5%
CC(C)c1oc(=O)cc2c1[C@@H](O)[C@H]1OC(=O)[C@@]3(C)CC[C@@H](O)[C@@]2(C)C13 (stereo partly drawn),3.98µM*,?
CC(=O)c1cccc(NC(=S)NC(=O)c2cccc(C)c2)c1,-26.6%,-5.0%
O=C1c2oc3ccc(Br)cc3c(=O)c2C(c2cccc(F)c2)N1CCO (stereo not drawn),-26.9%,/
COc1cc2c(cc1OC)CN(Cc1ccc(C)s1)CC2,-12.2%,/
CCCC(=O)N1CCN(c2ccc(NC(=O)c3cccs3)cc2Cl)CC1,-14.9%,-2.7%
Cc1nc2sc(C#N)c(N)c2c2c1CCCC2,-23.6%,/
CCOC(=O)C1CCN(C(=O)CSc2n[nH]c(-c3ccccc3Cl)n2)CC1,-4.8%,-12.3%
Cc1nonc1NC(=O)CSc1nnc(-c2ccoc2C)n1C,-2.3%,-9.6%
Cn1nnnc1NCc1ccc(Cl)cc1,-0.3%,4.9%
O=C(CN(Cc1ccc(F)cc1)C(=O)CNS(=O)(=O)c1ccc(Cl)cc1)NCC1CCCO1 (stereo not drawn),-14.1%,-16.2%
O=C(Nc1ccc2c(c1)OCO2)c1ccc(N2C(=O)c3ccccc3C2=O)cc1,10.8%,i
O=C(NCc1ccncc1)C(=O)NCC1OCCCN1S(=O)(=O)c1ccccc1 (stereo not drawn),-0.3%,-15.0%
CCOc1ccc(N(CC(=O)Nc2ccccc2C)S(=O)(=O)c2c(C)noc2C)cc1,-21.3%,-2.9%
Cc1ccc(-n2c(=S)[nH]c3ccccc3c2=O)cc1C,-14.7%,i
CN(CCC#N)c1ccc(C=C(C#N)c2ccc(Br)cc2)cc1,-25.8%,-11.1%
O=C(COC(=O)c1ccc(S(=O)(=O)N2CCOCC2)cc1)Nc1nc(-c2ccccc2)cs1,-11.4%,/
CCOC(=O)C1=C(CN2CCN(c3ccccc3F)CC2)NC(=O)NC1c1ccc(Cl)cc1 (stereo not drawn),-16.4%,-20.3%
C=CCSc1n[nH]c2nc3c(c(=O)n12)C1(CCCC1)Cc1ccccc1-3,-8.9%,i
COc1ccc(CC(=O)NNC(=O)CCc2ccccc2)cc1OC,-6.1%,-9.7%
CCCNC(=O)C1(CC2CC(c3ccccc3)=NO2)CCN(C(=O)C2CCCC2)CC1 (stereo not drawn),-9.0%,18.2%
CCOC(=O)c1cnc2ccc(C)cc2c1Sc1ccccc1C(=O)OC,-17.8%,-3.2%
CC(=O)Nc1ccc(S(=O)(=O)NCCSCc2ccco2)cc1,-12.5%,i
Cc1nnc(NC(=O)c2nc(SC(C)C)ncc2Cl)s1,5.4%,0.2%
O=C(CSc1ccccc1)N1CCc2c([nH]c3ccccc23)C1c1ccc(Cl)cc1 (stereo not drawn),-7.5%,-13.7%
CCc1nnc(SCc2nc(-c3ccc(OC)cc3)oc2C)c2cc3sccc3n12,-7.5%,-16.4%
O=C1CC(NCc2cccs2)C(=O)N1c1ccc(Cl)cc1 (stereo not drawn),-11.5%,/
O=C(CCN1C(=O)c2ccccc2C1=O)Nc1ccncc1,-8.7%,/
Cc1ccc(N(CC(=O)N/N=C/c2cccc(Br)c2)S(C)(=O)=O)cc1,-11.1%,-2.2%
CC1(C(=O)NCc2cccc3ccccc23)CCN1Cc1ccc(OC(F)(F)F)cc1 (stereo not drawn),-5.2%,-7.8%
O=C(Nc1cc(S(=O)(=O)N2CCCC2)ccc1Cl)c1cc(F)c(F)c(F)c1F,-7.7%,i
Cn1c(=O)c2c(nc(CN3CCN(CCO)CC3)n2CCc2ccccc2)n(C)c1=O,4.8%,19.8%
Cc1ccc(Cc2c(-c3ccc(F)cc3)nc3cc(C)ccn23)cc1,-18.5%,-2.7%
Cc1ccc(CCNC(=O)c2cc3sccc3n2Cc2ccc(C)cc2)cc1,-5.6%,-9.9%
C[C@@H]1ON(C)[C@H]2C[C@H]3c4[nH]c5ccccc5c4CCN3C(=O)[C@@H]12,-12.9%,-28.0%

# A portion from the list above, as a working copy:
Molecule,VACV Venus inh,Vaccinia mCherry
Cc1ccc(CCNC(=O)c2cc3sccc3n2Cc2ccc(C)cc2)cc1,-5.6%,-9.9%
C[C@@H]1ON(C)[C@H]2C[C@H]3c4[nH]c5ccccc5c4CCN3C(=O)[C@@H]12,-12.9%,-28.0%

# New compounds follow.
Molecule,VACV Venus inh,Vaccinia mCherry
COCCCNc1nc2nonc2nc1N1CCC(C(C)N2CCOCC2)CC1 (stereo not drawn),-8.7%,i
O=C(Cc1ccc(O)cc1)NC1CCCCCC1,-1.8%,-23.5%
O=C(NCC(=O)N1CCCCCCC1)c1ccc(Cl)c(Cl)c1,-15.2%,i
COc1cc(-c2nnc(SCCOc3cc(C)cc(C)c3)o2)cc(OC)c1OC,-4.5%,-17.0%
Cc1cc(Nc2ccc(Cl)cc2C)nc(-n2nc(C)cc2C)n1,-7.0%[7.34 µM],-15.3%[7.34 µM]
CCNc1nc(NC(C)CC)nc(ON=C(C)C)n1 (stereo not drawn),-9.9%,-29.9%
COc1cc(NC(=O)C(=O)NCCN2CCNCC2)c(OC)cc1Cl,-8.7%,i
CC1(C(=O)NS(=O)(=O)c2ccc(Cl)cc2)CCN1C(=O)COc1ccc(Cl)cc1 (stereo not drawn),-5.9%,-3.3%
Cc1nc2ccc(Cl)cn2c1C(=O)NN,-17.5%,-28.6%
C=CCOC(=O)C1=C(C)NC(SCC(=O)Nc2ccccc2)=C(C#N)C1c1ccco1 (stereo not drawn),?,-7.2%
CCn1cc(CN2CCC(n3nccc3NC(=O)Cc3ccccc3)CC2)cn1,-15.6%,-15.6%
O=C(Cc1ccc([N+](=O)[O-])cc1)Oc1ccccc1,-1.9%,i
C=CCc1c(C)nc2c(-c3ccccc3)cnn2c1N1CCOCC1,-9.9%,i
NC(=O)C(=O)N/N=C/c1cccc(C(F)(F)F)c1,-12.8%,-1.6%
COc1ccc(S(=O)(=O)N2CCCCC2)cc1NC(=O)c1ccccc1,-3.9%,-0.8%
COC(=O)c1c(NC(=O)C2SC(=NC3CCCCC3)C(C(N)=O)=C2N)sc2c1CCCC2 (stereo not drawn),-13.4%,-12.3%
O=C(CCC(=O)OCc1ccc(Br)cc1)Nc1ccccc1,-3.2%,-13.2%
Cc1ccc(C2C3=C(CC(C)(C)CC3=O)Nc3n[nH]c(C)c32)cc1 (stereo not drawn),-12.3%,/
CCOC(=O)CNC(=O)CSc1cn(CC(=O)N2CCCCCC2)c2ccccc12,-9.6%,-13.3%
O=C(O)CCC(NC(=S)Nc1ccccc1)C(=O)O (stereo not drawn),-0.1%,-12.9%
COCCN(C(=O)c1ccc(-c2ccc(Cl)cc2)o1)c1c(N)n(Cc2ccccc2)c(=O)[nH]c1=O,-9.4%,i
Cc1ccc(NC(=O)c2nc[nH]c2C(=O)N2CCN(C(=O)OC(C)(C)C)CC2)cc1,-16.2%,i
CC(C)c1ccccc1NC(=O)COC(=O)Cc1cccc(C(F)(F)F)c1,-5.3%,1.2%
CCOC(=O)c1c(NC(=O)CSc2nnnn2C)sc(C)c1C,-23.9%,-7.2%
COc1cccc(CNS(=O)(=O)c2cc(Br)ccc2Br)c1,-17.3%,-5.8%
Cc1ccc(C)c(N2CCN(CCCNC(=O)c3ccc4nc(N5CCCCC5)sc4c3)CC2)c1,?,?
CC(C)(C)NC(=O)CCN(/N=C/c1ccncc1)C1=NS(=O)(=O)c2ccccc21,-5.3%,-13.7%
Cc1ccc(-n2sc3ccccc3c2=O)cc1S(=O)(=O)N1CCCCC1,-14.7%,?
O=C(CCCn1c(=S)[nH]c2ccsc2c1=O)Nc1ccc(F)cc1,-12.5%,-1.2%
COc1ccc(Cl)cc1C1CC(=O)Nc2cc3c(cc21)OCCO3 (stereo not drawn),-26.8%[7.34 µM],-13.2%[7.34 µM]
Cc1cc(-c2nn(-c3ccccc3F)cc2CN2CCN(c3ccccn3)CC2)c(C)s1,-12.6%,-10.0%
COc1ccccc1N1CCN(CC(=O)c2ccc3ccn(C(C)=O)c3c2)CC1,-2.0%,-4.6%
COc1ccc2nc(SCC(=O)NCc3ccc4c(c3)OCO4)[nH]c2c1,-5.4%,-20.6%
COc1cc(S(=O)(=O)N2CCCC2)c(C)cc1C,-5.9%,-16.4%
COc1cccc(C(=O)NCCCNc2nc3cc(C)cc(C)c3cc2C#N)c1,-28.4%,-17.3%
OC(c1ccccc1)(c1ccccc1)C1CCN(CCCOc2ccc(F)cc2)CC1,?,?
O=C(O)C1CCN1C1CCCCC1 (stereo not drawn),-1.5%,/
CCc1ccc(NC(=O)c2cc3c(C)nc4ccccc4c3o2)cc1,-8.0%,-8.7%
CCOc1ccc(-c2c(C)nn3c(C)c(C(=O)NCC(C)c4ccccc4)cnc23)cc1OCC (stereo not drawn),-27.4%,?
CSC[C@H]1CN(c2ccc(Br)cc2)C(=O)[C@@H]1CC(=O)Nc1ccccc1,-16.5%,-7.8%
O=C(COC(=O)c1ccc(Sc2ccccc2)c([N+](=O)[O-])c1)NC1CCCc2ccccc21 (stereo not drawn),-16.4%,-18.3%
O=C(Nc1ccc(-c2nc3ccccc3s2)c(O)c1)C1=COCCO1,-20.1%,-5.2%
COc1cccc(N(CC(=O)NC2CCCCC2)C(=O)CCC(=O)Nc2nc(C)cs2)c1,-9.6%,-17.7%
O=C(Nc1ccc(Cl)c(S(=O)(=O)N2CCOCC2)c1)c1ccc(Cl)nc1,-27.0%,-10.8%
CCNc1nc(N)c(C(=C(C#N)C#N)c2ccccc2)s1,?,?
CCc1cc2c(cc3c(=O)n(CC(=O)N4CCN(c5ccccn5)CC4)nc(CC)n32)s1,-2.9%,-11.0%
Nc1ccc(S(=O)(=O)Nc2nccc(/C=C/c3cccc(Br)c3)n2)cc1,-13.5%,-29.7%
COc1cc2c(cc1OC)C(C)N(C(=O)c1ccc(C)o1)CC2 (stereo not drawn),-10.4%,-8.2%
CCC1(c2cccc(O)c2)CCCCN(C)C1 (stereo not drawn),-8.3%,-10.8%
CN1C(=O)[C@H]2[C@@H](/C=C/c3ccccc3)N3C(=O)CN(CCO)C(=O)[C@@]3(Cc3ccccc3)[C@H]2C1=O,-11.7%,i
CCCc1ccc(O)c(N=Cc2cc(Br)cc(OCC)c2O)c1,-8.6%,-27.4%
O=C(N/N=C/c1ccccc1[N+](=O)[O-])c1ccc(CN2CCOCC2)cc1,-12.0%,-11.0%
CCOC(=O)c1c(-c2ccc(C)cc2)csc1NC(=O)c1cccc(N2C(=O)CCC2=O)c1,-7.8%,i
COc1ccc(OC)c(C(=O)COC(=O)c2ccc(C)o2)c1,?,/
O=S1(=O)CC(N2CCN(CC3CC3)CC2)CN1C1CCCCC1 (stereo not drawn),2.2%,i
COc1cccc(NC(=O)CSCc2cc(=O)n3ccsc3n2)c1,-8.8%,i
